E coli growth = E. coli growth inhibition | AID 1053175 | Escherichia coli growth, OD600, 23 h; stronger effect = lower value | OD600 absorbance (no concentration beside the values) | 330,000 compounds, 0.21% hits;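 active means OD600 absorbance below the run mean of sample wells minus 3.6 SD, in any replicate, cut at about 0.56 in these data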;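 further: stock transfer was 300 nL into about 60 µL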
UCH37 inh = inhibitors of human deubiquitinating enzyme UCH37; Q9Y5K5; purified proteasome/UCH37, Ub-AMC cleavage fluorescence; inhibition, % (no concentration beside the values); 330,000 compounds, 0.33% hits;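 active means mean of two replicates above 20%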;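 further: 0% = compound-free wells with enzyme and 100% = wells lacking proteasome; stock transfer was 100 nL into about 20 µL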
Target sequence (Q9Y5K5 whole entry, looked up): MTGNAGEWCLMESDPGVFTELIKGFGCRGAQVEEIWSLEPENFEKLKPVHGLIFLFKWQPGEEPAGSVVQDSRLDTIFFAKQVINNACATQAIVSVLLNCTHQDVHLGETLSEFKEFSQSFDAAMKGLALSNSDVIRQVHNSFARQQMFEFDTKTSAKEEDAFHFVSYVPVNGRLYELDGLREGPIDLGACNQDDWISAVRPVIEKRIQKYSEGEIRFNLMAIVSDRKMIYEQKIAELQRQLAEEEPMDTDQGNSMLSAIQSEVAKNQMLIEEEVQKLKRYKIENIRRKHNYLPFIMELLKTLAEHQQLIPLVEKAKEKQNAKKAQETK
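Assay system: Proteasome-bound UCH37. Buffer or medium: pH 7.4 Tris-HCl (50 mM) with ovalbumin, ATP-MgCl2, DTT. Incubation: 30 min preincubation with enzyme, 25 min cleavage at room temperature. Measured by: fluorescence, ex 355 nm, em 460 nm. Read-out basis: percent inhibition. Control set: wells without proteasome as full block, compound-free enzyme plus substrate as uninhibited.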
Active calls of the source: *. Only part of the results is shown; rates above refer to the full screens.

mol	E coli growth	UCH37 inh
CON=C(CS(=O)(=O)c1ccc(C)cc1)c1ccc(OC)cc1	0.73	2.4
NC(=O)SCC(=NS(=O)(=O)c1ccccc1)Nc1ccccc1	0.74	2.9
O=S(=O)(c1ccc(Cl)c(NC(=S)NN=Cc2c(F)cccc2F)c1)N1CCOCC1	0.72	2.4
Oc1ccc(C=Nn2c(-c3ccco3)csc2=Nc2cccnc2)c(O)c1	0.67	2.8
Cc1ccccc1OCC(=O)NN=Cc1cn(C)c2ccccc12	0.72	-0.8
NC(=O)NN=C1CCS(=O)(=O)c2ccc(F)cc21	0.67	1.4
CCOc1ccc(C=Nn2c(SC)nnc(C(C)(C)C)c2=O)cc1	0.77	1.9
CCC(C)[C@H](NC(=O)OC(C)(C)C)C(=O)NN=Cc1cccc2nccnc12 (stereo partly specified)	0.74	5.1
CC1Oc2ccccc2C=C1C=NNC(=O)[C@@H](C)NC(=O)OC(C)(C)C (stereo partly specified)	0.67	-97
CN(C)CCCNC(=S)N=c1sccn1Cc1ccccc1Cl	0.64	7.2
Cc1cc(C(=O)NN=C2CC(=O)CC(C)(C)C2)c(C)n1-c1ccccc1	0.71	2.5
CCC(=NOC(=O)c1cccc(C)c1)C(=O)c1cccs1	0.7	-2.2
C=C(C)CNC(=S)NN=Cc1ccco1	0.68	5.6
COc1ccc(C=NNC(=O)CCc2c(C)n[nH]c2C)c(OC)c1OC	0.71	2.0
C(=NNc1nncn1N=Cc1ccco1)c1ccco1	0.71	12
CCOc1ccccc1-c1cc(C(=O)NN=Cc2ccc(O)c(OC)c2)c2ccccc2n1	0.69	1.5
Cc1occc1C(=O)NN=C/C(Br)=C/c1ccccc1	0.6	-0.3
COc1ccccc1NN=Cc1c(CO)cnc(C)c1O	0.59	-0.2
COc1ccc(C=NNC(=O)c2ccccc2[N+](=O)[O-])cc1COc1c(F)c(F)c(F)c(F)c1F	0.72	1.9
COc1cccc(C=NNC(=S)NCCc2ccccc2)c1	0.7	3.1
COC(=O)NN=Cc1ccc([N+](=O)[O-])s1	0.62	12
COc1ccc(C=NOCC(=O)NCc2cccs2)c(OC)c1	0.7	3.3
O=C(Cn1cc(C(F)(F)F)ccc1=O)NN=Cc1ccc(Cl)c(Cl)c1	0.68	-0.2
O=C(NN=Cc1ccsc1)c1ccc2c(c1)OCO2	0.64	2.2
COc1cccc(C=NNC(=O)NC2CCCCC2)c1O	0.67	-4.9
COc1ccc(C=NNC(=O)c2cc(C)on2)c2ccccc12	0.77	0.9
COc1ccc(C=NNC(=O)c2cc3c(ccc4ccccc43)o2)c(OC)c1	0.67	-173
Cc1cccc(C(=O)Nc2ccc(C(=O)NN=Cc3cccnc3)cc2)c1	0.71	0.8
Cc1ccc(C=NNC(=O)c2cncc(Br)c2)o1	0.75	9.1
CC(=NNc1ccc(S(N)(=O)=O)cc1[N+](=O)[O-])c1ccc2c(c1)OCO2	0.7	4.5
O=C1C2C3C=CC(C3)C2C(=O)N1N=Cc1cc(Br)cc([N+](=O)[O-])c1O (stereo unspecified)	0.73	1.5
O=S(=O)(NN=Cc1ccc2c(c1)OCO2)c1ccc(F)cc1	0.67	3.3
O=C(NN=Cc1c(F)cccc1Cl)c1cc(C2CC2)[nH]n1	0.67	0.0
CCCOC(=O)C(C)=NNC(=O)c1ccco1	0.65	1.0
Cc1ccc(S(=O)(=O)N=C(N)Nc2nc(C)c3cc(C)c(C)cc3n2)cc1	0.74	-44
Nc1nnc(CC(=O)NN=Cc2ccccc2OCc2ccccc2F)s1	0.68	2.3
O=C(COc1ccc(C=NNC(=O)CSCc2ccc([N+](=O)[O-])cc2)cc1)NCc1ccco1	0.7	3.7
COc1cc(OC)cc(C(=O)NCCSCc2ccco2)c1	0.67	4.5
COc1cccc(C=NNC(=S)NCCc2ccccc2)c1OC	0.69	1.3
COc1cccc(C=NNC(=O)c2ccc([N+](=O)[O-])cc2Cl)c1O	0.64	-0.6
CC(=NNC(=O)c1ccccc1OCc1ccc(F)cc1)c1ccccn1	0.68	5.0
COc1ccc(C(=O)NN=C/C(C)=C/c2ccccc2)cc1OC	0.66	8.3
Cc1cccc(OCC(=O)NCC(=O)NN=Cc2ccc([N+](=O)[O-])cc2)c1	0.67	3.1
COc1cccc(C=NNC(=O)c2cnccn2)c1O	0.72	7.0
Cc1no[n+]([O-])c1COc1ccccc1C=Nn1nnnc1N	0.73	1.4
CSc1ccc(C=Nn2c(C)nnc2C)cc1	0.63	2.4
Nc1nnnn1N=Cc1cccc(Br)c1	0.64	3.5
NS(=O)(=O)c1ccc(NN=Cc2cn(-c3ccccc3)nc2-c2cccs2)c([N+](=O)[O-])c1	0.73	6.2
O=C(C[n+]1ccc(C=NO)cc1)N(Cc1ccccc1)Cc1ccccc1	0.69	1.8
COc1ccccc1C=NNC(=O)c1ccc(=O)n(C)c1	0.69	10.0

Reformatted: results already given.
Structure: COc1cccc(C=NNC(=S)NCCc2ccccc2)c1
  E coli growth: 0.7	UCH37 inh: 3.1
Structure: O=C(C[n+]1ccc(C=NO)cc1)N(Cc1ccccc1)Cc1ccccc1
  E coli growth: 0.69	UCH37 inh: 1.8
Structure: Cc1ccc(C=NNC(=O)c2cncc(Br)c2)o1
  E coli growth: 0.75	UCH37 inh: 9.1
Structure: O=C(NN=Cc1ccsc1)c1ccc2c(c1)OCO2
  E coli growth: 0.64	UCH37 inh: 2.2

Next part
Each structure is followed by: E coli growth | UCH37 inh
> CN(C)c1ccc(C=NNC(=O)c2ccc(-n3cnnn3)cc2)cc1
 : 0.65 | -2.0
> COC1CC(=NO)C2OC(c3ccccc3)OCC2O1 (stereo unspecified)
 : 0.7 | 0.9
> COc1cc(C=NNC(=O)c2nc3ccccn3c2C)cc(OC)c1O
 : 0.68 | 11
> C(=NNC1=NCCN1)c1ccncc1
 : 0.69 | 2.9
> Cc1ccc(C=NNC(=O)c2ccc(Cn3cc(Br)c([N+](=O)[O-])n3)o2)o1
 : 0.67 | 1.7
> COc1cc(C=NNc2nc3ccccc3o2)cc(OC)c1OC
 : 0.69 | 0.3
> O=C(O)CN1CCNCC1
 : 0.74 | -0.7
> Clc1ccc(NN=Cc2cccnc2)cc1
 : 0.62 | 7.7
> O=C(NN=C1CC2CCC1C2)c1cc2ccccc2cc1O (stereo unspecified)
 : 0.59 | -10
> O=C(NN=Cc1cccnc1)c1cc(-c2ccccc2Cl)nc2ccccc12
 : 0.74 | 2.2
> CC(CS(=O)(=O)c1ccccc1)=NO
 : 0.63 | -1.8
> Cc1ccsc1C=NN1CCOCC1
 : 0.67 | 2.3
> CCN(CC)c1ccc(C=NNC(=O)c2c(Cl)cnn2C)c(O)c1
 : 0.64 | -14
> CC(C)(C)c1ccc(OCc2ccc(C(=O)NN=C3CC4CC=CC34)cc2)cc1 (stereo unspecified)
 : 0.66 | 2.6
> Oc1ccccc1C=Nn1cnn(Cc2ccccc2Cl)c1=S
 : 0.74 | -0.4
> CC12CN3CCN(CC(C3)C1=NNC(=O)Nc1cccc(Cl)c1)C2
 : 0.68 | -0.6
> COc1ccc(C(=O)C(C#N)=NNc2ccccc2[N+](=O)[O-])cc1
 : 0.64 | 6.2
> O=C(CCC(=O)Nc1cccc([N+](=O)[O-])c1)NN=Cc1cccs1
 : 0.62 | 2.8
> C/C(C=Nn1cnnc1)=C\c1ccco1
 : 0.65 | 15
> COc1c(C=NNc2nc(N3CCCCC3)nc(N3CCCCC3)n2)cccc1[N+](=O)[O-]
 : 0.74 | 3.7
> COc1cc(C=NNC(=O)CSc2cc(C)c(Br)cc2C)ccc1O
 : 0.67 | 0.1
> O=C(NN=Cc1cccc([N+](=O)[O-])c1)c1ccncc1
 : 0.7 | 4.9
> COc1ccccc1/C=C\C=NNC(=O)CCn1nnc2ccccc21
 : 0.68 | 3.2
> Clc1ccc(C=NNc2ccccc2)cc1
 : 0.62 | 6.3
> CN(C)C(=NS(=O)(=O)c1ccccc1)c1ccc(Cl)cc1
 : 0.67 | 2.6
> COc1ccc(C(C)=NNC(=O)C(NC(=O)c2ccccc2)c2n[nH]c(=O)c3ccccc23)c(OC)c1 (stereo unspecified)
 : 0.68 | 1.1
> O=C(CNC(=O)c1ccc(S(=O)(=O)N2CCCC2)cc1)NN=Cc1ccc(Cl)cc1
 : 0.67 | 0.9
> Cc1onc(-c2ccccc2)c1C(=O)ON=C(N)c1ccc([N+](=O)[O-])o1
 : 0.64 | 6.9
> COc1ccc(C=NNC(=O)c2ccccc2Cl)cc1COc1c(F)c(F)c(F)c(F)c1F
 : 0.73 | 2.2
> Cc1ccc(C=NNS(=O)(=O)c2ccccc2)o1
 : 0.66 | 2.1

Reprinted from the part before: two entries, then new ones.
Each structure is followed by: E coli growth | UCH37 inh
> COc1ccc(C=NNC(=O)c2ccccc2Cl)cc1COc1c(F)c(F)c(F)c(F)c1F
 : 0.73 | 2.2
> Cc1ccc(C=NNS(=O)(=O)c2ccccc2)o1
 : 0.66 | 2.1
> CCCCC(C)=NNC(=O)CN(c1ccc(Br)cc1)S(=O)(=O)c1ccccc1
 : 0.64 | -2.3
> CC(=NN)c1c(-c2ccccc2)c2cc(Br)ccc2[nH]c1=O
 : 0.74 | 5.1
> O=C(NN=Cc1cc2c(cc1Cl)OCO2)c1ccncc1
 : 0.67 | 0.4
> COc1ccc(-c2nn(-c3ccccc3)cc2C=NNc2ccccn2)cc1
 : 0.69 | -2.9
> O=[N+]([O-])c1ccc(NN=C2CCCCC2c2ccccn2)cc1 (stereo unspecified)
 : 0.68 | 8.5
> CC(N=C1CC(C)(C)CC(=O)/C1=C(\O)CCCN1C(=O)c2ccccc2C1=O)C(=O)O (stereo unspecified)
 : 0.67 | 1.5
> COc1ccccc1N1CCN(N=Cc2ccc([N+](=O)[O-])cc2)CC1
 : 0.71 | 4.6
> ON=Cc1ccc2cccc(OCc3ccccc3)c2n1
 : 0.6 | -50
> Cc1ccsc1C=NN=Cc1sccc1C
 : 0.74 | 1.6
> CC(=NNC(=O)c1nnn(-c2nonc2N)c1-c1cccs1)c1cccc(O)c1
 : 0.71 | 2.0
> COc1ccc(C=NNC(=O)c2nn(C)cc2Cl)cc1CN1CCOCC1
 : 0.63 | 7.2
> Cc1c(C(=O)O)cccc1-c1ccc(C=NNc2ccc(Br)cc2)o1
 : 0.71 | -45
> COC(=O)C1CC(=NNS(=O)(=O)c2ccc(C)cc2)c2sccc2C1 (stereo unspecified)
 : 0.7 | 7.1
> Clc1ccc(Cl)c(-c2ccc(C=Nc3ncn[nH]3)o2)c1
 : 0.63 | 5.9
> COc1cc(OC)c(C=NN2CCN(c3ccccc3OC)CC2)c(OC)c1
 : 0.67 | 1.3
> Cc1cc(-c2n[nH]c(=S)n2N=C/C(Br)=C/c2ccccc2)n[nH]1
 : 0.059* | 1.9
> Cc1nnc(NN=Cc2ccccn2)[nH]c1=O
 : 0.47* | 1.9
> FC(F)Oc1ccc(C=NNC(=S)Nc2cc(C(F)(F)F)ccc2Cl)cc1
 : 0.7 | 1.1
> CCOc1ccc(C=Nn2c(C)nc3ccccc3c2=O)cc1
 : 0.66 | 2.6
> Cc1nn(-c2cccc(C(F)(F)F)c2)c(Cl)c1C=NNc1cccc(C(=O)O)c1
 : 0.7 | 5.7
> CC(=O)Nc1ccc(C(=O)NN=CC2CC3C=CC2C3)cc1 (stereo unspecified)
 : 0.66 | 1.5
> O=C(NN=C/C=C/c1ccccc1[N+](=O)[O-])c1cccnc1
 : 0.63 | 9.4
> Cc1cc(C(=O)NN=Cc2c(C)[nH]c3ccccc23)n[nH]1
 : 0.71 | 5.3
> C=CCOc1ccc(C(CC)=NO)c(OC)c1
 : 0.65 | 0.6
> CCOc1ccc(N(CC(=O)NN=Cc2cc(Br)c(C)o2)S(C)(=O)=O)cc1
 : 0.72 | 0.8
> Brc1ccc(C=NNc2ccc3ccccc3n2)cc1
 : 0.66 | -1.3
> Cc1cccc(NCC(=O)NN=Cc2ccc[nH]2)c1
 : 0.67 | 1.8
> Cn1c2c(c3ccccc31)CCC2=NO
 : 0.69 | -0.1
> CC(Cc1ccccc1)=NNC(=O)CCCCCC(=O)NN=C(C)Cc1ccccc1
 : 0.73 | 0.1
> CCCc1c(C(=O)NN=Cc2c(OC)ccc3ccccc23)nnn1-c1nonc1N
 : 0.73 | -67

3 entries already listed, sorted by the value under UCH37 inh, low to high.
smiles | UCH37 inh
COc1ccc(-c2nn(-c3ccccc3)cc2C=NNc2ccccn2)cc1 | -2.9
C=CCOc1ccc(C(CC)=NO)c(OC)c1 | 0.6
Clc1ccc(Cl)c(-c2ccc(C=Nc3ncn[nH]3)o2)c1 | 5.9

(next part)
Each structure is followed by: E coli growth | UCH37 inh
> O=[N+]([O-])c1ccc(C=NNc2ncc(Br)cn2)cc1
 : 0.68 | 4.7
> O=C(NN=Cc1ccncc1)c1ccccc1
 : 0.69 | 31*
> COc1ccc(C=NN2CCOCC2)cc1Cn1nc(C)c([N+](=O)[O-])c1C
 : 0.65 | 3.7
> CN(C(=NS(=O)(=O)c1cccs1)c1ccccc1)c1ccc(O)cc1
 : 0.7 | 1.8
> Oc1ccccc1C=NNc1ccnc(SCc2ccccc2)n1
 : 0.71 | 11
